# Calb FLC = C. albicans growth inhibition with fluconazole, primary screen, CaCi-2 strain, Alamar Blue fluorescence; C. albicans CaCi-2 (fluconazole-resistant clinical isolate) + fluconazole, 48 h; growth inhibition, % (test concentration not listed); hit rate 0.57% among 300,000;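 active = most replicates above 75%; inconclusive = exactly half above 75%; inactive = most below 75%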;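 note: all wells also contain fluconazole at 8 µg/ml as a sub-toxic cotreatment; 0% = median of DMSO wells and 100% = median of geldanamycin control wells; wells of about 8 µL received 7.5 nL stock; the first replicate is given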
# Beta cell apopt = inhibitors of cytokine-induced beta cell apoptosis, primary screen, luminescence; INS-1E cytokine-induced death, ATP luminescence, 48 h; percent of positive-control rescue, neutral wells zero; protection from apoptosis, % (no concentration beside the values); hit rate 0.8% among 300,000;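 active = all replicates at 75% or more, or half of them and the mean; inconclusive = half reach 75% but not the mean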;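 note: 0% = cytokine-treated negative control wells and 100% = positive control rescue; higher means more ATP so stronger rescue from cytokine killing; wells of about 40 µL received 100 nL stock; the first replicate is given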
# A1 inh = caspase 3/7 activation in MEF A1-2A-BIM cells, primary screen, A1 inhibitor project, cell-based, luminescence, HTS. Caspase-Glo 3/7 luminescence, 3 h; percent of clofoctol response, vehicle zero. caspase activation, % (concentration not given with the values). hit rate 0.066% among 330,000. AID 2462, 2010;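 active = over half of replicate activation scores above 10%, or exactly half above 10 with the replicate mean above 10; inconclusive = replicate mean below 10 yet half the replicates above 10; inactive = over half of replicates below 10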;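 note: wells of about 30 µL received 50 nL stock; many hits fall short of the cut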
# LANA-H2A inh = blockers of LANA interaction with H2A/H2B – biochemical, FP readout, HTS, primary screen; inhibition, % (concentration not given with the values); cell-free LANA-H2A/H2B peptide, fluorescence polarization; hit rate 0.6% among 320,000; Protein LANA1 (Human herpesvirus 8 type P (isolate GK18)), Q9QR71; in the data active = inhibition mostly above about 10%, no sharp cut-off; inactive = mostly below about 6.7%;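 note: stock transfer was 7.5 nL into about 10 µL; 0% = median of vehicle wells and 100% = median of positive control wells; one replicate is shown; the record names a cut of 25% in any replicate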
# B2AR ag = beta2AR agonists driving receptor internalization, primary screen, cell-based, FAP fluorogen, flow cytometry; AID 504454, 2011; response, % (no concentration beside the values); Beta-2 adrenergic receptor (Homo sapiens), P07550; Am2.2-beta2AR cells; reference of the scale not given here; hit rate 0.43% among 340,000;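 active = response above a set limit, near 3 SD of response in nonfluorescent compounds, cut at about 42% in these data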;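 note: stock transfer was 100 nL into about 11 µL; a reference agonist was the positive control; negative values mostly stem from fluorescent compounds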
# Target sequence (P07550 whole entry, looked up): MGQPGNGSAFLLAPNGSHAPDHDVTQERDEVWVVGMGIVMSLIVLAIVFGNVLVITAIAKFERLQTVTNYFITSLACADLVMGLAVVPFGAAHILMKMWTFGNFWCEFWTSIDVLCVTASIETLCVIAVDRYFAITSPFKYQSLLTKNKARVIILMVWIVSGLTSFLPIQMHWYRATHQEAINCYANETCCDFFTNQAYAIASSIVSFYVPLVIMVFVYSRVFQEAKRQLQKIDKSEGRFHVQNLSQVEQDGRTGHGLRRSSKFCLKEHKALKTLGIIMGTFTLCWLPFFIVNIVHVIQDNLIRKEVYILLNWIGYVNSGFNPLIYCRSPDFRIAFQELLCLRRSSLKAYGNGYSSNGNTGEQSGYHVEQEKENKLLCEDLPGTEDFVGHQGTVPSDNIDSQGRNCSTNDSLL
# ALR inh = inhibitors of human ALR sulfhydryl oxidase, primary screen, biochemical, H2O2 detection, HRP-luminol luminescence, single point. hit rate 3.8% among 290,000. FAD-linked sulfhydryl oxidase ALR (Homo sapiens), P55789. inhibition, % (concentration not given with the values). purified ALR, DTT oxidation;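 active = mean and each replicate at 75% or more; inconclusive = only one of the two met; inactive = neither met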;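 note: stock transfer was 7.5 nL into about 7.5 µL; 0% = neutral wells and 100% = wells with inactivated enzyme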
# Target sequence (P55789 whole entry, looked up): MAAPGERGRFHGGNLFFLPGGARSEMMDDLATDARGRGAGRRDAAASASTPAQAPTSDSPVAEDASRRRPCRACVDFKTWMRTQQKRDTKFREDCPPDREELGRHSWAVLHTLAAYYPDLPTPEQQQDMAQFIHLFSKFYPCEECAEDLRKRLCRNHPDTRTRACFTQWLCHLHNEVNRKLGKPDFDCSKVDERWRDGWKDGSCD
# T cruzi inh = inhibitors of intracellular T. cruzi growth, primary screen, luminescence, NIH3T3 host cells. T. cruzi beta-gal in NIH3T3, 90 h. inhibition, % (concentration not given with the values). hit rate 1.4% among 300,000. AID 1885, 2009;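 active = mean inhibition across valid replicates above about 55%, limit read from the data; inconclusive = mean below that limit but half or more replicates reach it; inactive = mean below it, under half of replicates reach it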;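 note: signal also drops with host cell toxicity which is not excluded here; 0% = plate median of DMSO wells and 100% = zero luminescence signal; higher percent means less beta-gal luminescence so fewer parasites; stock transfer was 50 nL into about 50 µL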
# rRNA inh HTS = reduced GFP signal of wild-type E. coli, primary screen, bacterial rRNA inhibitor project, GFP/RFP fluorescence, OD600, single point; GFP signal change (wild-type ribosome), % (test concentration not listed); AID 720706, 2013; hit rate 1.6% among 350,000; E. coli WT GFP vs humanized-ribosome RFP mutants, 24 h; hits give low values; DMSO median 0, no signal -100;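 active = significant combined selectivity score with lowered wild-type GFP, culture density cut under 30%, mutant RFP and density less affected; inactive = any of these conditions unmet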; note: one replicate is shown; some compounds called inactive have numbers as strong as hits
# rRNA inh HTS OD600 = further read-out of rRNA inh HTS, marked with its call; OD600 change, %; measured here: OD600 growth;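 optical density of the mix in the first replicate; 0 = DMSO median and -100 = no signal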
# rRNA inh HTS RFP = second read-out of rRNA inh HTS, no call of its own (marks repeat the call); RFP signal change, %; measured here: RFP humanized mutant strains;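 first replicate; 0 = DMSO median and -100 = no signal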
# Starred values were filed as active, the others as inactive; ? = inconclusive; . = no result given. This is a subset (hit frequency here may not be typical).
# Every second line gives: Calb FLC	rRNA inh HTS RFP	ALR inh	Beta cell apopt	A1 inh	LANA-H2A inh	rRNA inh HTS	rRNA inh HTS OD600	B2AR ag	T cruzi inh
> COc1ccc([C@@H]2CC(=O)c3c(O)cc(O[C@@H]4OC(CO[C@@H]5OC(C)[C@H](O)[C@H](O)C5O)[C@@H](O)[C@@H](O)C4O)cc3O2)cc1O (some centres not stated)
 : -8	.	6	-4	-1.4	1.3	.	.	-3	6
> Cc1c(N=C2SCC(=O)N2/N=C\c2ccc(Br)cc2)c(=O)n(-c2ccccc2)n1C
 : 2	0.1	92*	-7	-0.4	-11	12	10	-2	1
> O=C(O)CCCn1cc(NC(=O)c2c(F)cccc2F)cn1
 : -41	2.1	-12	-7	0.2	-1.5	15	12	2	4
> CC1(C)CC(=O)C(C=NC(CCC(N)=O)C(=O)O)=C(O)C1 (configuration not stated)
 : 4	.	-6	-4	0.4	1.5	.	.	0	-12
> CC(=O)Nc1ccc(C(=O)OCC(=O)Nc2ccccc2Sc2ccccc2)cc1
 : -2	-10	-3	.	-0.3	1.7	-26	-41	-19	6
> CCCCC(=O)Nc1cc(C)c2c(=O)oc3ccccc3c2n1
 : 1	.	.	11	0.4	5.2	.	.	-3	.
> CCn1c2ccc(F)cc2c2nnc(SCCN3CCCCC3)nc21
 : -4	-0.9	5	11	-0.1	-1.8	-3	2	-9	63*
> COc1ccc(OC)c(NC(=O)Nc2c(O)ccc3ccccc23)c1
 : 9	0.4*	-2	-10	0.7	0.4	-27*	-3.6*	8	6
> CCS(=O)(=O)Nc1cccc(-c2nc3cccnc3s2)c1
 : -2	-0.3	-11	-26	-1.6	-3.9	-12	-10	-13	0
> COc1cccc(C(=O)Nc2c3c(nn2-c2ccc(Cl)cc2)CS(=O)(=O)C3)c1OC
 : 35	1.8	0	3	-2.0	0.1	-18	-28	-6	-8
> Cc1cc(C)nc(SCC(=O)N/N=C/c2cccnc2)n1
 : -20	0.9	-1	-3	1.2	-9.9	9	13	14	-8
> CN(Cc1c(C(=O)N/N=C/c2cccc(Cl)c2)nnn1-c1nonc1N)c1ccccc1
 : .	5.4	0	-2	-0.1	-4.4	-8	-15	5	-3
> O=[N+]([O-])c1ccc(COc2ccc(-c3[nH]ncc3-c3ccccc3)c(O)c2)cc1
 : -1	0.4	-6	25	-0.1	-2.5	5	-3	-6	6
> Cc1ccc(NC(=O)c2cccs2)cc1S(=O)(=O)N(C)C
 : 3	-4.2	-1	3	1.1	3.5	1	-8	-24	2
> C=CCN(CC=C)C(=S)NC(=O)/C=C/c1ccc(OC)cc1
 : 2	8.2	.	0	-0.1	3.3	-8	-1	11	-16
> CN(C)S(=O)(=O)N1CCC(Oc2cccc(C(=O)NC3CCOC3)c2)CC1 (configuration not stated)
 : -5	.	-2	0	1.0	0.9	.	.	-10	-14
> CCOC(=O)C1CCN(C(=O)COC(=O)c2ccccc2C(=O)c2ccc(Cl)cc2)CC1
 : 4	-1.3	6	-1	0.1	-2.8	-8	-22	5	-4
> CC12CNCC(C)(CN(C(c3ccccc3)c3ccccc3)C1)C2
 : -5	.	-6	28	0.2	-4.4	.	.	90*	-9
> COc1ccc(N2CCN(S(=O)(=O)c3c(C)nc4scc(C)n4c3=O)CC2)cc1
 : -7	-2.3	66	5	0.6	3.9	0	-4	-10	4
> CCOc1ccc(N2C(=O)CC(Sc3nccc(C)n3)C2=O)cc1 (configuration not stated)
 : 11	.	2	-3	0.2	0.0	.	.	-5	15
> COc1ccc(C(=O)Sc2ccc(C)cc2)cc1OC
 : -8	.	-5	.	-0.3	2.7	.	.	8	1
> CCN1CCN(CCC(=O)Nc2ccccc2OC)CC1
 : -2	-4.4	-6	-2	0.7	-3.0	7	-1	-2	-6
> Cc1nn(-c2ccccc2)c2[nH]c(=O)c(CNc3ccc(N4CCOCC4)cc3)cc12
 : 3	.	97*	1	0.1	-0.6	.	.	3	9
> CCN(CC)c1ccc(CNc2ccc3c(c2)ncn3C(C)(C)C)cc1
 : 1	-0.1	99*	16	0.5	1.1	5	7	0	43
> O=C(COS(=O)c1ccccc1)Nc1cc(Cl)ccc1N1CCOCC1 (configuration not stated)
 : 64*	-1.1	4	1	0.0	-3.5	-8	-7	8	1
> Cc1cccc(OCCn2c(NC(=O)c3ccco3)nc3ccccc32)c1
 : -2	.	5	50	0.3	4.0	.	.	-13	60*
> C/C=C/C=C\C(=O)Nc1cccc(C2=NOC3(C2)C[C@@H](C(N)=O)N(C(=O)c2cc([N+](=O)[O-])cc([N+](=O)[O-])c2)C3)c1 (some centres not stated)
 : -1	-6.8	-18	2	-1.0	-0.2	18	20	-4	14
> CC(C1CC2CCC1C2)N1CC(O)=C(c2nc3ccccc3[nH]2)C1=N (configuration not stated)
 : 0	16	.	8	-0.4	-3.7	-13	-10	0	-1
> O=C(C1CC1)N1CCc2cc(Br)cc(S(=O)(=O)NCCCN3CCCC3)c21
 : -31	.	-12	-3	0.2	4.8	.	.	-14	0
> COCCNC(=O)COC(=O)c1cccnc1SC
 : 30	-6.9	2	2	-0.1	-2.8	11	12	-8	-13
> CCN(C(=O)CN1CCOCC1)c1c(N)n(Cc2ccccc2)c(=O)[nH]c1=O
 : 12	2.6	-14	0	-0.1	-1.5	22	12	3	-1
> C=CCNc1nc(-c2sc(NC(C)=O)nc2C)cs1
 : 6	.	.	12	-0.5	-3.4	.	.	-2	-11
> COc1ccc(C(=O)NC(=S)NCCc2ccccc2)cc1
 : 21	-1.3	.	-29	-0.7	1.1	-2	-5	1	18
> Cn1c(=O)c2c(nc(NCc3ccc4c(c3)OCO4)n2Cc2ccccc2Cl)n(C)c1=O
 : -2	.	-3	1	1.0	-0.2	.	.	-1	10
> COc1ccc(CCNC(=O)CCn2c(=O)c3cccn3c3cccnc32)cc1OC
 : -22	-11	-7	2	-1.0	-0.3	5	4	-15	-2
> COc1ccc(C(=O)Nc2nnc(Cc3ccc(OC)c(OC)c3)s2)c(OC)c1
 : -2	-2.7	1	1	-1.1	2.6	-7	-4	-11	2
> Cc1ccc(CNC(=O)[C@H](C)N2C(=O)N3CCc4c([nH]c5ccccc45)[C@@]3(C)C2=O)cc1
 : 9	21	-15	-8	0.3	-1.6	19	10	4	3
> CN(CC(=O)Nc1ccc(F)c(F)c1F)c1cnccn1
 : 30	.	.	0	0.8	-4.4	.	.	.	64*
> Cc1cccc(OCC(=O)Nc2ccc(S(=O)(=O)N3CCN(C)CC3)cc2)c1
 : 0	.	-4	0	0.2	2.2	.	.	2	1
> O=C(Nc1ccccn1)C1CCN(S(=O)(=O)c2ccc(Cl)cc2)CC1
 : -5	3.6	-12	-8	1.8	1.5	4	7	-1	-4

# One compound at a time, as listed above. Values in the order: Calb FLC	rRNA inh HTS RFP	ALR inh	Beta cell apopt	A1 inh	LANA-H2A inh	rRNA inh HTS	rRNA inh HTS OD600	B2AR ag	T cruzi inh
# `O=C(O)CCCn1cc(NC(=O)c2c(F)cccc2F)cn1` across the screens: -41	2.1	-12	-7	0.2	-1.5	15	12	2	4
# `COc1ccc(CCNC(=O)CCn2c(=O)c3cccn3c3cccnc32)cc1OC` across the screens: -22	-11	-7	2	-1.0	-0.3	5	4	-15	-2
# `Cc1cc(C)nc(SCC(=O)N/N=C/c2cccnc2)n1` across the screens: -20	0.9	-1	-3	1.2	-9.9	9	13	14	-8
# `COc1ccc(N2CCN(S(=O)(=O)c3c(C)nc4scc(C)n4c3=O)CC2)cc1` across the screens: -7	-2.3	66	5	0.6	3.9	0	-4	-10	4
# `CCN(CC)c1ccc(CNc2ccc3c(c2)ncn3C(C)(C)C)cc1` across the screens: 1	-0.1	99*	16	0.5	1.1	5	7	0	43

# Continued.
# Every second line gives: Calb FLC	rRNA inh HTS RFP	ALR inh	Beta cell apopt	A1 inh	LANA-H2A inh	rRNA inh HTS	rRNA inh HTS OD600	B2AR ag	T cruzi inh
> COc1ccc(-c2nnc(SCc3nnc(-c4cccs4)o3)n2CC2CCCO2)cc1 (configuration not stated)
 : -2	-4.8	-12	8	0.8	-4.5	-8	-15	-19	-15
> COc1ccc(OCC(=O)N/N=C2\CCc3ccccc32)cc1
 : 1	.	1	1	0.2	1.7	.	.	-12	-13
> COC(=O)N/N=C\c1ccc(OC(=O)c2ccco2)cc1
 : -12	2.8	39	2	0.2	-3.2	12	21	-18	-7
> Cc1ccc(S(=O)(=O)CCc2ccncc2)cc1
 : 9	-3.2	-6	5	1.2	-9.4	14	9	-5	-40
> COCCN1Cc2c(sc(C)c2C)N(C(=O)c2ccccc2)C1
 : ?	.	41	1	-7.3	-2.7	.	.	5	14
> COc1cc(C2C(C(=O)c3cc4ccccc4o3)=C(O)C(=O)N2c2cc(C)on2)cc(OC)c1OC (configuration not stated)
 : 4	-0.8	-1	-4	-0.2	-4.9	1	6	6	-21
> COc1ccc(Cl)cc1NC(=O)CC1CCCC1
 : -1	0.1	-6	-1	0.3	-3.4	2	2	-8	-12
> CCCn1c(C)cs/c1=N\C(=S)Nc1ccccc1
 : 12	-4.5	-3	-4	-0.3	-2.8	3	16	-4	-17
> CC1CC(Nc2ccccc2)c2ccccc2N1C(=O)c1ccncc1 (configuration not stated)
 : -6	1.6	-16	-1	1.0	-2.1	1	0	5	.
> COC(=O)C(NC(=O)c1ccccc1)(Nc1nc(C)cs1)C(F)(F)F (configuration not stated)
 : 1	-15*	-5	-4	0.3	0.5	-42*	-27*	-1	-12
> Cc1cc(=O)[nH]c(=S)n1-c1ccccc1
 : -1	.	29	.	-0.6	-3.4	.	.	0	-18
> CCOc1ccccc1NC(=O)c1cccc2c1C(=O)N(CCOC)C2
 : 0	-3.6	-4	-1	-0.4	3.3	-7	-19	-19	14
> CC(=O)Nc1ccc(C(=O)NNC(=O)c2cccc(C)c2)cc1
 : -3	-0.8	-18	5	-0.5	2.4	3	5	0	-10
> Cc1ccc(NC(=O)c2c(F)cccc2Cl)cc1NS(C)(=O)=O
 : -7	-2.8	5	-1	0.5	-0.7	-3	0	-5	-4
> N#C/C(=C/c1ccc(-c2ccc(S(N)(=O)=O)cc2)o1)C(=O)Nc1ccccc1
 : -2	.	-4	-2	-0.8	-2.5	.	.	3	11
> COc1ccc(OC)c(S(=O)(=O)N(C)CC(=O)O)c1
 : 2	.	.	-5	-0.4	3.2	.	.	1	2
